# Screening data deposited in PubChem by several laboratories.
# CSC inhib = cancer stem cell viability inhibitors, primary screen, luminescence | 300,000 compounds, 1.1% hits | inhibition, % at 7.5 µM | cancer stem cell-like cells viability;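 active = mean at 75% or more and at least half the replicates too; tested in HMLE shEcad cells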;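 note: 0% = median of negative and 100% = median of positive control wells; the first replicate is given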
# Rce1 inhib = yeast Rce1p protease inhibitors, primary screen, biochemical, fluorescence, cell-free homogeneous | CAAX prenyl protease 2 (Saccharomyces cerevisiae (strain ATCC 204508 / S288c)), Q03530 | yeast membranes, quenched prenylated peptide cleavage fluorescence | calls only | 290,000 compounds, 0.27% hits | AID 2563, 2010;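 active = fall in fluorescence gain of 50% or more versus controls, with final raw signal at or below 3038400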;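 note: plate controls were neutral control wells for no effect and wells lacking membranes for full effect; tested at 10 µM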
# UUG fidelity = modulators of yeast start codon fidelity, primary screen, whole organism, S. cerevisiae, single point, plate reader; 350,000 compounds, 0.13% hits; activity score, % at 18.7 µM; S. cerevisiae UUG-firefly luciferase reporter, luminescence/redox ratio;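 active = replicate mean at a twofold rise or more, about +100% in these data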;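 note: firefly luciferase made from a UUG start codon reports start codon fidelity; reporter light over untreated wells divided by growth signal over untreated wells; some hits fall short of that in this replicate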
# eIF4H FP inh = human eIF4H binding inhibitors, primary screen, translation initiation inhibitor project, biochemical, uHTS, fluorescence polarization. inhibition, % at 35 µM. eIF4H fluorescence polarization binding assay. 290,000 compounds, 0.94% hits. Eukaryotic translation initiation factor 4H (Homo sapiens), Q15056;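 active = 50% or more with normal probe brightness, or confirmed in later tests; about a fifth of its hits are not listed in these tables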;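 note: calls also rest on retests at 20 µM and on dose response follow-up; 0% = protein and probe with vehicle and 100% = probe without protein; strong numbers were not always called active; many hits fall short of the cut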
# Env fusion inh = inhibitors of HIV-1 Env-driven cell-cell fusion, primary screen, HeLa-JRFL effector, CEM21 target cells, luciferase; inhibition, % at 12.3 µM; 360,000 compounds, 1.1% hits; AID 651610, 2012;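 active = mean replicate inhibition score of at least 50 and every replicate individually at or above 50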;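 note: 0% = plate neutral controls and 100% = maraviroc near 300 nM; one replicate is shown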
# MT1-MMP act inh = blockers of MT1-MMP proenzyme processing, primary screen, HT1080 RFP-PRO-GFP cells, GFP/RFP fluorescence; Matrix metalloproteinase-14 (Homo sapiens), P50281; GFP/RFP ratio fluorescence, overnight; percent of plate control window, DMSO zero; GFP/RFP ratio change, % at 20 µM; 360,000 compounds, 0.061% hits; AID 651647, 2012;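 active = GFP/RFP ratio change of at least 30% with cell ATP level not reduced by more than half and red fluorescence within 50% of control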; note: strong numbers were not always called active
#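 system = RFP-PRO-GFP reporter HT1080 cells | dosing = 20 µM single dose, 1% DMSO | timing = overnight cell settling, then overnight compound exposure, 37 °C, 5% CO2 | read-out basis = GFP/RFP fluorescence ratio | controls = DMSO and RFP-L50D-GFP cell wells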
# PABP polyA inh = PABP poly(A) RNA binding inhibitors, primary screen, biochemical, fluorescence polarization, uHTS; Polyadenylate-binding protein 1 (Homo sapiens), P11940; inhibition, % at 35 µM; 290,000 compounds, 1% hits; AID 2014, 2009;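 active = 50% or more with normal probe brightness, or confirmed in later tests; about a fifth of its hits are not listed in these tables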;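 note: calls also rest on retests at 20 µM and on dose response follow-up; controls were probe without protein and protein plus probe with vehicle; some compounds called inactive have numbers as strong as hits; many hits fall short of the cut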
# Target sequence (P11940 whole entry, looked up): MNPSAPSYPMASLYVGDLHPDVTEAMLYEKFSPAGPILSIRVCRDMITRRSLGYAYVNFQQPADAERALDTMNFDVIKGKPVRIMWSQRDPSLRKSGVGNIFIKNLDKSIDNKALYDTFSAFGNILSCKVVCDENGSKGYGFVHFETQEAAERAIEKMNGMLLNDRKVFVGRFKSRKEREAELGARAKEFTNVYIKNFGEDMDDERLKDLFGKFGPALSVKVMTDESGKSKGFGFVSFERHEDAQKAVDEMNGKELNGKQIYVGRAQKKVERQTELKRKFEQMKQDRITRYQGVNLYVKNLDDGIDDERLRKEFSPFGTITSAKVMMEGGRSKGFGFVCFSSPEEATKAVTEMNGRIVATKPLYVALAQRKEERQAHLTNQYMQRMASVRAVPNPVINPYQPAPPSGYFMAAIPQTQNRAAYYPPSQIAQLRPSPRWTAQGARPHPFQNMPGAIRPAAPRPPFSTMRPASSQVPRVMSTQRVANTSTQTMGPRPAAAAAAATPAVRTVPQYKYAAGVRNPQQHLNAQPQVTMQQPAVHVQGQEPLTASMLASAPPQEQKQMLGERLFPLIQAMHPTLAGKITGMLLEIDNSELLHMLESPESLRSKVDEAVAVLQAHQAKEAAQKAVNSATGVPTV
# eIF4H FP inh retest = recorded beside eIF4H FP inh, whose call it bears; inhibition, %; compound at 20 µM; confirmation average;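 mean of two retest wells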
# PABP polyA inh retest = also measured in PABP polyA inh; calls as there; inhibition, %; compound at 20 µM; confirmation repeats;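 mean of two retest wells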
# MT1-MMP act inh RFP = also measured in MT1-MMP act inh; calls as there; RFP signal change, %; measured here: RFP expression control read;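 0 = vehicle wells; hits needed this value within 50% of zero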
# The depositor's hits bear a star; i = inactive; nt = not tested or not shown; + = active, no number.
SMILES,CSC inhib,Rce1 inhib,UUG fidelity,eIF4H FP inh,Env fusion inh,MT1-MMP act inh,MT1-MMP act inh RFP,PABP polyA inh,others
Cc1c(NC(=O)c2c(F)cccc2F)c(=O)n(-c2ccccc2)n1C,3,i,-13,-5,nt,-1,1,0,
Cc1cc(C)cc(NC(=O)COC(=O)COc2ccc(N(C)S(=O)(=O)c3cccs3)cc2)c1,12,nt,-11,nt,8,2,8,nt,
COc1ccc(C2N(C(=O)C(F)(F)F)C(C)CN2S(=O)(=O)c2ccc(C)cc2)cc1 (stereo unspecified),nt,i,-6,7,5,2,4,8,
CCOC(=O)c1c(C)[nH]c(C)c1C(=O)CSc1nc(N)cc(=O)[nH]1,0,i,nt,-1,-111,-1,1,3,
Cc1cc(C)cc(N)c1,-4,nt,2,nt,nt,-1,7,nt,
COc1ccccc1N1CCN(c2ccc(-c3ccccc3)nn2)CC1,69,nt,-31,2,i,7,-8,3,
O=C(c1cc2sccc2n1Cc1ccccc1)N1CCCc2ccccc21,25,i,-19,2,-18,-11,-9,-5,
CCCC(=O)Nc1ccc(Cc2ccc(NC(=O)CCC)c(C(=O)O)c2)cc1C(=O)O,-11,i,nt,-6,-9,2,5,12,
COc1ccc(S(=O)(=O)Nc2ccc(N3CCOCC3)cc2)cc1Br,0,i,-1,14,13,3,3,-4,
O=C(CN1C(=O)CSc2ccc(S(=O)(=O)N3CCOCC3)cc21)NCc1cccnc1,-10,i,nt,-2,9,-2,-1,-3,
CN1CCC(=NNC(=O)CN(c2ccccc2)S(=O)(=O)c2ccccc2)CC1,-2,nt,-12,-5,-6,0,7,-3,
O=C1COc2ccc(C(=O)COC(=O)CNC(=O)C3CCCCC3)cc2N1,-9,i,-16,0,7,-3,-2,6,
CN1C(=O)C2(OCC(COc3ccc(Cl)cc3)O2)c2ccccc21 (stereo unspecified),3,i,-12,3,nt,3,-6,-2,
O=S(=O)(NCc1ccco1)N1CCCCCC1,-8,i,-4,0,nt,-3,1,-2,
CC(=O)NC(CC(=O)OCC(=O)c1c(N)n(CC(C)C)c(=O)n(C)c1=O)c1ccccc1 (stereo unspecified),-3,i,nt,nt,10,4,-3,nt,
O=C(CCC(=O)c1ccc(Cl)cc1)OCn1nnc2ccccc2c1=O,4,nt,0,nt,nt,1,0,nt,
O=C(O)c1cc2ccc3cccc4ccc(c1)c2c34,-1,i,-8,2,-9,-3,4,6,
Cc1cccc(N2CCN(CCNC(=O)c3cc4c(s3)CS(=O)(=O)C4)CC2)c1C,11,nt,-1,1,nt,6,-6,0,
O=C(COC(=O)c1ccco1)NC1CCCC1,-2,nt,-15,-7,-3,-1,3,0,
O=C(Nc1nncs1)c1cccc(S(=O)(=O)N2CCc3ccccc32)c1,-3,i,-14,-11,10,-4,2,4,
CCn1nc(C)cc1C(=O)NC1CC(C)(C)Cc2c1cnn2-c1cccc(F)c1 (stereo unspecified),0,+,-5,-6,18,-1,-3,-13,
O=C(O)c1ccc[nH]c1=S,2,i,9,3,-1,2,7,-1,
Cc1[nH]c2ccccc2c1C(c1ccccn1)N1CCCC1 (stereo unspecified),14,i,nt,-5,21,0,6,-2,
S=C(NC1CCCCC1)NC1CC2CCC(C1)N2Cc1ccccc1 (stereo unspecified),2,i,nt,3,-13,0,-3,-1,
Cc1nn(C)c(Cl)c1C(=O)NCC(=O)O,1,i,nt,8,-144,0,2,2,
CCC(CO)Oc1cc(NCc2ccccc2Cl)c2ncn(C(C)C)c2c1 (stereo unspecified),-2,nt,-19,nt,16,4,1,nt,
Cc1ccc2[nH]c(=O)c(CN(C)C(=O)c3ccccn3)cc2c1,-7,i,-22,8,nt,2,5,1,
Cc1ccc(N2CC(C(=O)Nc3cc(C(F)(F)F)ccc3N3CCCC3)CC2=O)cc1 (stereo unspecified),-3,i,nt,nt,9,1,-3,nt,
O=C(CCNS(=O)(=O)c1cccc2nsnc12)NCc1ccco1,nt,i,-13,-10,15,1,4,-7,
COCCCN1C(=O)C(CC(=O)NCc2ccco2)CC(C(=O)N2CCOCC2)=C1C (stereo unspecified),nt,nt,-14,nt,0,2,3,nt,

# Three entries from above, arranged by heavy-atom count, smallest number first:
SMILES,CSC inhib,Rce1 inhib,UUG fidelity,eIF4H FP inh,Env fusion inh,MT1-MMP act inh,MT1-MMP act inh RFP,PABP polyA inh,others
CCOC(=O)c1c(C)[nH]c(C)c1C(=O)CSc1nc(N)cc(=O)[nH]1,0,i,nt,-1,-111,-1,1,3,
O=C(CCC(=O)c1ccc(Cl)cc1)OCn1nnc2ccccc2c1=O,4,nt,0,nt,nt,1,0,nt,
Cc1ccc(N2CC(C(=O)Nc3cc(C(F)(F)F)ccc3N3CCCC3)CC2=O)cc1 (stereo unspecified),-3,i,nt,nt,9,1,-3,nt,

# (further entries)
SMILES,CSC inhib,Rce1 inhib,UUG fidelity,eIF4H FP inh,Env fusion inh,MT1-MMP act inh,MT1-MMP act inh RFP,PABP polyA inh,others
Cc1cc(NC(c2cccnc2)c2ccc3cccnc3c2O)no1 (stereo unspecified),nt,i,-35,17,nt,-3,-1,3,
COc1cc(NC(=O)CN2CCCCC2C)c(C)cc1[N+](=O)[O-] (stereo unspecified),29,i,nt,-1,-17,-1,1,2,
O=C(CCCCCN1C(=O)c2ccccc2C1=O)Nc1ccc2c(c1)OCCO2,0,i,-7,3,12,2,-2,-1,
COc1ccccc1CN1CCNC(=O)C1CC(=O)N(C)C1CCOCC1 (stereo unspecified),nt,nt,-9,nt,3,0,2,nt,
CC(C)(C)c1csc(Sc2ccc([N+](=O)[O-])cn2)n1,-5,i,-7,1,-24,2,-4,-7,
CS(=O)(=O)N1CCC(Oc2ccccc2C(=O)N2CCCCC2CO)CC1 (stereo unspecified),-12,i,-14,5,-1,0,4,-8,
Cc1nn(-c2ccccc2)c2sc(C(=O)N3CCCCC3)cc12,-7,i,1,9,nt,0,-7,2,
Cc1ccccc1OCC(=O)Nc1nnc(S(=O)(=O)N2CCCC2)s1,10,i,-5,2,18,7,2,-5,
O=C(NCC(=O)N1CCC(Cc2ccccc2)CC1)c1ccc(Cl)cc1,12,i,13,-3,-7,0,3,6,
CCCCn1c(N)c(N(CC)C(=O)c2cccc(OC)c2)c(=O)[nH]c1=O,6,i,nt,1,-4,1,4,6,
CCCn1c(N)c(C(=O)CSc2nc3ncc(Cl)cc3[nH]2)c(=O)n(C)c1=O,-5,nt,-10,nt,-4,4,3,nt,
Cc1cccc(OCC(=O)Nc2ccc(S(=O)(=O)N3CCCC3)cc2)c1,0,i,2,11,-17,5,-3,8,
COc1ccc(C/C(O)=C(\C#N)c2nc3ccccc3s2)cc1,nt,i,-20,-4,nt,-2,-5,4,
CCOc1ccc(S(=O)(=O)NCCC(=O)NCCOc2ccccc2OC)cc1,10,i,-4,nt,-19,-2,-3,nt,
Cc1ccccc1-c1nc(NC(C)C)nc2ccsc12,nt,nt,-19,nt,7,-2,-2,nt,
Nn1c(SCC(=O)NC2CCCCC2)nnc1-c1ccccc1,-11,i,-15,-7,3,0,2,0,
Cn1cc([N+](=O)[O-])c(C(=O)Nc2ccc3nc(-c4ccccc4)[nH]c3c2)n1,nt,i,-31,-6,nt,-5,-5,3,
Cc1ccc(-c2c3c(=O)n(C)c(=O)n(C)c3cn2Cc2cccnc2)cc1,-47,i,-1,-3,nt,1,1,11,
O=C(O)c1ccc(/C=N/Nc2ccc(F)cc2F)cc1,16,i,-16,1,-83,-7,0,-5,
COc1ccc(CCNC(=O)Cn2cnc3scc(-c4ccccc4)c3c2=O)cc1OC,13,i,nt,-4,14,2,1,-3,
COc1ccc2[nH]c(=O)c3c(c2c1)OC(C)(C)C=C3,-3,i,1,-6,136*,-12,-13,-1,
O=C1c2cccc3cccc(c23)C(=O)N1CCCCCc1n[nH]c(=S)o1,5,i,nt,1,23,3,-3,0,
CC(NC(=O)C(=O)Nc1nccs1)c1ccccc1 (stereo unspecified),-4,i,nt,4,7,0,1,2,
CC(NS(=O)(=O)c1ccc2c(c1)OCCCO2)C(=O)O (stereo unspecified),-5,i,nt,8,-12,5,0,6,
CCOC(=O)c1nc(-c2ccc(OC)c(OC)c2)no1,-9,i,nt,3,-7,0,2,-12,
O=C(Nc1ccc(S(=O)(=O)N2CCOCC2)cc1)c1ccco1,-6,i,-15,-3,-1,3,-1,13,
Cn1cccc1CC(=O)N/N=C\c1c2ccccc2cc2ccccc12,23,i,-15,54,-95,-8,2,13,eIF4H FP inh retest=30;PABP polyA inh retest=14
O=C(NN=C1CCCCCCCCCCC1)c1cccnc1,-11,i,nt,4,3,-7,-2,-9,
O=C(c1cc(-c2cccnc2)nc2ccccc12)N1CCCc2ccccc21,2,i,-18,5,22,0,-2,4,
O=C(NCc1ccncc1)Nc1ccc2c(c1)OCO2,-4,i,nt,1,13,-4,1,3,
CC(=O)C1=C(O)C(=O)N(c2nccs2)C1c1ccccc1 (stereo unspecified),-7,i,nt,-10,nt,2,4,6,
CC(=O)Nc1ccc(S(=O)(=O)N(CC(=O)Nc2cc(C)on2)Cc2ccc(F)cc2)cc1,-5,i,nt,-10,8,2,0,9,
Cc1ccc(NC(=S)Nc2ccccn2)c(C)c1,-1,i,nt,-1,-58,3,-10,8,
Cc1ccc(S(=O)(=O)Nc2cc(C)nn2-c2ccccc2)cc1,-9,nt,-17,-8,-21,1,0,1,
CC(C)(C)C1CC=C2C(C#N)=C(N)C(C#N)(C#N)C(c3cccs3)C2C1 (stereo unspecified),-3,i,nt,93*,nt,nt,nt,121*,
O=C(COc1ccc2ccc(=O)oc2c1)Nc1cccnc1,-5,i,-15,1,-7,2,-1,4,
CCN1C(N(C)C)=NC[C@@H]1Cc1ccccc1,7,nt,-17,nt,37,3,4,nt,
COc1ccc(-c2cc(=O)oc3cc(OCC(=O)N[C@@H](Cc4c[nH]c5ccccc45)C(=O)O)ccc23)cc1,-10,i,6,-3,nt,-1,2,18,
Cn1cccc1/C=C1\CCc2ccccc2C1=O,24,i,-52,0,-24,-15,5,-13,
CCC(CO)N=CC1=C(O)CC(C)(C)CC1=O (stereo unspecified),-2,i,0,5,nt,-4,-2,-5,
O=C1C(=O)N(CCN2CCOCC2)C(c2ccccc2F)/C1=C(\O)c1ccc(S(=O)(=O)N2CCOCC2)cc1 (stereo unspecified),nt,i,-19,7,-55,2,5,2,
COc1ccccc1NC(=O)CCCCCN1C(=O)c2cccc([N+](=O)[O-])c2C1=O,-1,i,-13,-18,1,-2,2,0,
O=C(NN=Cc1ccc2c(c1)OCO2)c1ccccc1,nt,nt,-26,nt,-64,-3,2,nt,
Cc1cccc(NC(=S)NNC(=O)c2csc(C)c2)c1,-10,i,nt,7,-26,11,7,-3,
FC(F)(F)c1ccc(-c2cccc3c2C2CC3CCN2Cc2ccc3c(c2)OCO3)cc1 (stereo unspecified),nt,nt,7,nt,7,3,-3,nt,
O=C(COC(=O)C1=COCCO1)Nc1ccccc1Oc1ccccc1,-2,i,6,-4,nt,1,1,4,
COc1ccc(-c2nnc(NC(=O)CS(=O)(=O)c3ccc(F)cc3)o2)c(OC)c1,-6,i,nt,nt,-9,0,3,nt,
COc1ccccc1/C=C(\NC(=O)c1cccc(C)c1)C(=O)Nc1ccccn1,-9,i,0,-6,-2,1,5,-7,
C/C(=N\OC(=O)NC1CCCCC1)c1sc(-c2ccccc2)nc1C,50,i,-12,8,-82,-3,-20,-6,
